MLL AF4-AF9 inh – inhibitors of human MLL-AF4/AF9 interaction; P42568; AlphaScreen, biotin-AF4 peptide binding to FLAG-AF9; inhibition, % at 10 µM; hit rate 0.47% among 350,000;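 active = every replicate reaching a set inhibition limit, whatever the replicate mean, cut at about 25% in these data; inconclusive = mean inhibition reaches that limit but some replicates miss it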;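 note: 0% = plate neutral control median and 100% = total signal loss; the record names both 10 and 1 µM as test concentration; the first replicate is given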
Target sequence (P42568 whole entry, looked up): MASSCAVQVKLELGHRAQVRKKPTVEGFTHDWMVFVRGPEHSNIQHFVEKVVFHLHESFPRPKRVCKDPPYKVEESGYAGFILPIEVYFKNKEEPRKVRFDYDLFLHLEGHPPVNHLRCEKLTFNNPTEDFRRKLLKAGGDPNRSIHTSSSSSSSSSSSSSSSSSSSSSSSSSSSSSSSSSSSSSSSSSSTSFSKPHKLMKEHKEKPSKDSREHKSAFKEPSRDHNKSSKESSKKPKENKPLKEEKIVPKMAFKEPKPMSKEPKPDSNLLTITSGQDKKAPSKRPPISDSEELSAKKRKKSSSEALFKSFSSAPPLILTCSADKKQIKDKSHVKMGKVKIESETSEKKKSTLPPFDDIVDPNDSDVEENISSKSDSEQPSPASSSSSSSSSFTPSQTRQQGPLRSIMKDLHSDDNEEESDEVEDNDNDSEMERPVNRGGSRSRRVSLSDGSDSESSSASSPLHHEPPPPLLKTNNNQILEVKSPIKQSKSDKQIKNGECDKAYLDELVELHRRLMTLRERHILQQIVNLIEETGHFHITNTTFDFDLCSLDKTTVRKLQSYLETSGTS
rRNA inh HTS – inhibits bacterial ribosomal RNA function over humanized ribosomes; E. coli WT GFP vs humanized-ribosome RFP mutants, fluorescence, 24 h; stronger effect = lower value; DMSO median 0, no signal -100; GFP signal change (wild-type ribosome), % (no concentration beside the values); hit rate 1.6% among 350,000;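 active = significant combined selectivity score with lowered wild-type GFP, culture density cut under 30%, mutant RFP and density less affected; inactive = any of these conditions unmet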; note: one replicate is shown; some compounds called inactive have numbers as strong as hits
FGF22 binding – binders of recombinant human FGF22 by thermal shift | Q9HCT0 | SYPRO orange fluorescence; percent of sucrose octasulfate shift, DMSO zero | calls only at 9.99 µM | hit rate 1.5% among 340,000 | AID 651658;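 active = melting point raised past a set limit in the mean and every replicate; inconclusive = no clear call; three in four hits are not shown here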
Target sequence (Q9HCT0 whole entry, looked up): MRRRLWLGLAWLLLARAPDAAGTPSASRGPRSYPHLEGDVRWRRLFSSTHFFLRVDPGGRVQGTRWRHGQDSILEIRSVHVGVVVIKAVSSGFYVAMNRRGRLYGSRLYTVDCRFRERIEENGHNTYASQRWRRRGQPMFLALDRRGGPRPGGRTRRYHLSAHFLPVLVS
HNF4A DNA FP – change in binding of human HNF4 alpha to DNA; activity change, % at 10 µM; AID 1224865; HNF4a-FITC DNA binding, fluorescence polarization, 1 h; hit rate 0.3% among 360,000; P41235; in the data active = activity change above about 30%, passing the limit was not always enough;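 note: controls were the assay level and a saturating level of protein; the project sought stronger binding though the title names inhibitors; some compounds called inactive have numbers as strong as hits; positive values seem to mean higher polarization but the record does not say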
Vif A3G – HIV-1 Vif–A3G interaction blockers – biochemical, TR-FRET, GST-Vif 1-94, biotin-A3G peptide, dose response retest, primary screen (AID 1117319); TR-FRET GST-Vif / biotin-A3G peptide binding; higher % means a stronger effect; test concentration not given here; strong numbers were not always called active; inhibition, %; hits with a dose series show IC50 in µM; hit rate 0.57% among 260,000;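 active = above the screen mean plus three standard deviations and confirmed in dose response; inconclusive = results disagree or hit not tested in dose response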;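 note: Vif residues 1-94 fused to GST binding biotinylated APOBEC3G peptide 110-148; 0% = full assay without inhibitor and 100% = GST in place of GST-Vif; retest series ran down from 100 µM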
ALR inh – blocks human ALR sulfhydryl oxidase activity. P55789. purified ALR, DTT oxidation, H2O2 HRP-luminol luminescence. inhibition, % (test concentration not listed). hit rate 3.8% among 290,000. AID 485317;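 active = mean and each replicate at 75% or more; inconclusive = only one of the two met; inactive = neither met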;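 note: stock transfer was 7.5 nL into about 7.5 µL; 0% = neutral wells and 100% = wells with inactivated enzyme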
Target sequence (P55789 whole entry, looked up): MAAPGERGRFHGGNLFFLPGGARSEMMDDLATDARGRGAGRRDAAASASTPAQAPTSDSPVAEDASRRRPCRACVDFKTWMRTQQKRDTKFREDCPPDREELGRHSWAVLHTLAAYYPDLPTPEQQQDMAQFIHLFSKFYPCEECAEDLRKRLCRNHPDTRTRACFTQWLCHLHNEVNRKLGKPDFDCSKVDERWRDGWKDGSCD
Ecoli growth – inhibitors of Escherichia coli growth; AID 1053175; hit rate 0.21% among 330,000; OD600, 23 h; stronger effect = lower value; OD600 absorbance (no concentration beside the values);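 active = OD600 absorbance below the run mean of sample wells minus 3.6 SD, in any replicate, cut at about 0.56 in these data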;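 note: stock transfer was 300 nL into about 60 µL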
rRNA inh HTS OD600 – recorded beside rRNA inh HTS, whose call it bears; OD600 change, %; measured here: OD600 growth;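 optical density of the mix in the first replicate; 0 = DMSO median and -100 = no signal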
rRNA inh HTS RFP – also measured in rRNA inh HTS; calls as there; RFP signal change, %; measured here: RFP humanized mutant strains;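 first replicate; 0 = DMSO median and -100 = no signal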
* hit, by the source's call; i = inactive; ? = inconclusive; · = not tested or not shown; & = joins results of further samples. An excerpt. The share of hits here may be higher or lower than overall.

Ecoli growth	HNF4A DNA FP	rRNA inh HTS OD600	MLL AF4-AF9 inh	ALR inh	FGF22 binding	rRNA inh HTS RFP	rRNA inh HTS	Vif A3G	Compound
·	1.8	6	-2.5	·	i	0.1	9	·	COCCNC(=O)C1(C)CCCN(Cc2cc(-c3ccccc3)on2)C1 (centres undefined)
·	·	-3	0.1	·	i	3.2	-1	·	C[C@H](NC(=O)C[C@H]1C[C@H]2c3cc(NS(=O)(=O)c4ccc(F)cc4)ccc3O[C@H]2[C@@H](CO)O1)c1ccccc1
0.69	-0.2	·	·	6	·	·	·	-2%	CCc1c(C)nc(N2CCN(Cc3ccccc3)CC2)[nH]c1=O
0.74	-1.8	·	·	·	·	·	·	2%&1%	Cc1cccc(-n2ncc3c(NCCN4CCOCC4)ncnc32)c1
0.61	-1.0	16	11	-9	i	1.5	16	-1%	O=C(C[n+]1ccncc1)c1ccccc1
0.66	0.6	-1	-6.5	-8	i	-6.0	-2	-5%	O=C(NCCN1C(=O)S/C(=C\c2cccnc2)C1=O)c1cc(S(=O)(=O)N2CCOCC2)ccc1F
·	·	11	5.0	·	i	2.5	-1	·	O=C(C[C@H]1CC[C@@H]2[C@H](COC[C@@H](O)CN2S(=O)(=O)c2ccc(F)cc2)O1)N[C@@H]1CCN(Cc2ccccc2)C1
0.6	1.3	-26	-3.8	-1	i	44	-20	-1%	CSc1cccc(NC(=O)/C=C/c2cccc(Cl)c2)c1
·	·	13	3.4	·	i	3.1	0	·	CCCC#Cc1ccc([C@H]2[C@H]3CN(S(=O)(=O)c4ccccc4F)CCCCN3[C@H]2CO)cc1
0.63	-1.0	12	-1.3	-4	i	-0.9	10	-4%	Cn1cccc1C(=O)NC1CCCCC1
·	-1.5	13	-0.1	-25	i	-1.3	18	18%	O=C(O)C1CCC(CNCc2ccccc2Cl)CC1 (centres undefined)
0.65	-2.9	·	·	3	·	·	·	-11%	Cc1ccc(-n2c(N)c(C(=O)N3CCN(C)CC3)sc2=S)cc1
0.64	-1.8	-2	-1.9	-8	i	-1.5	-10	-7%	C=CCN(CC=C)CCOc1ccc2ccccc2c1
0.65	-1.9	·	·	7	·	·	·	·	O=C(Cc1ccccc1)Nc1c[nH]c(=O)[nH]c1=O
·	-3.1	-2	2.4	-9	i	-1.9	-3	-3%	O=C(C1=C[C@H](c2csc3ccccc23)C[C@H](OCc2ccc(CO)cc2)O1)N1CCN(Cc2ccccc2)CC1
0.71	3.4	9	1.6	-3	i	1.3	17	5%	O=C(Nc1c(C(=O)N2CCC(N3CCCCC3)CC2)oc2ccccc12)c1ccc(F)cc1
0.65	-0.9	6	3.2	·	i	-0.6	1	3%	CN(CC(=O)Nc1ccccc1Cl)C(=O)COC(=O)c1ccc(Cl)nc1
0.69	2.9	-1	-2.1	-13	·	-3.3	3	0%	Cn1cnnc1SCC(=O)Nc1ccccc1Oc1ccccc1
0.67	-2.6	·	·	-14	·	·	·	2%	O=C(O)c1ccccc1C(=O)Nc1nccs1
0.73	2.0	·	·	-28	·	·	·	-4%	O=[N+]([O-])c1cc(S(=O)(=O)Nc2ccccc2)ccc1-n1nnc2ccccc21
0.76	0.5	·	·	-6	·	·	·	-10%&-2%	CC1CCCCN1C(=O)CSc1nc2cc3c(cc2c(=O)n1Cc1ccc2c(c1)OCO2)OCO3 (centres undefined)
0.7	2.6	3	-2.7	·	i	-4.0	5	8%	O=C(Nc1cc(S(=O)(=O)N2CCOCC2)ccc1Cl)c1ccc(=O)[nH]c1
0.66	-0.2	·	·	9	·	·	·	·	CCOC(=O)c1nn(-c2ccccc2C)c2nc(Nc3ccccc3)cc(=O)n12
0.73	-2.5	-24	1.0	62	i	-0.3	-21	13%	COc1ccccc1OCC(=O)Nc1ccc2c(c1)C(=O)N(CC1CCCO1)C2=O (centres undefined)
0.69	-13	·	·	98*	·	·	·	24%	CCn1c(CSc2nc3ccccc3s2)nnc1SCC(=O)c1ccc(O)c(O)c1
·	60*	4	-1.5	26	i	10	8	·	COc1cc(/C=N/c2oc(C)c(C)c2C#N)cc(Br)c1O
0.77	2.2	·	·	-2	·	·	·	2%	Cc1nc(-c2ccc(S(=O)(=O)N3CCCCCC3)cc2)cs1
0.68	5.7	·	·	-7	·	·	·	?	Cc1sc2ncn(CCn3cnc4sc(C)c(C)c4c3=O)c(=O)c2c1C
·	·	-1	1.4	·	i	-1.6	-1	·	COCC(=O)Nc1ccc2c(c1)C(=O)N(C)[C@@H]1CC[C@H](CC(=O)NC3Cc4ccccc4C3)O[C@H]1CO2
0.67	-0.5	-17	6.4	·	i	2.7	-6	1%	CS(=O)(=O)c1ccccc1C(=O)N1CCN(S(=O)(=O)c2ccc(C3CCCCC3)cc2)CC1
·	·	2	1.1	·	i	-1.3	-8	·	CN(C)C(=O)c1ccc(-c2ccccc2[C@@H]2[C@H](C#N)N(C(=O)C3CCCCC3)[C@H]2CO)cc1
·	·	-3	-2.5	·	i	-3.3	-3	·	C[C@H](CO)N1C[C@H](C)[C@@H](CN(C)C(=O)c2ccc(F)cc2)Oc2ncc(-c3ccc(F)cc3)cc2C1=O
0.66	-1.3	3	-0.9	·	i	-1.8	-4	·	O=C(NNC(=O)c1ccccc1Br)c1cnccn1
0.63	6.0	-4	1.0	-13	i	2.3	-11	2%	O=C(O)c1cccc2c1C(=O)N(Cc1ccccc1)C2
0.65	5.2	·	·	1	·	·	·	13%	CCOC(=O)CSc1nnc(CNC(=O)c2cccs2)n1Cc1ccccc1
0.66	1.5	·	·	·	·	·	·	10%	CC(C)(C)n1nnnc1C(c1cccs1)N1CCN(Cc2ccc3c(c2)OCO3)CC1 (centres undefined)
·	·	-4	-3.2	·	i	-0.7	0	·	C[C@H]1CN([C@@H](C)CO)C(=O)Cc2cc(NC(=O)CCC(F)(F)F)ccc2O[C@@H]1CN(C)C(=O)NC1CCCCC1
0.72	-0.7	10	-2.8	2	i	1.8	7	10%	CCOC(=O)/C(=C\C=C\N1CCOCC1)C(C)=O
·	-0.2	-3	94*	3	i	-5.0	0	·	CCCCNC(=O)O[C@@H]1C[C@@H]2CCN3C(=O)CCC[C@H]([C@H]1CC)[C@H]23
·	·	8	-1.2	·	i	-0.9	0	·	C[C@@H]1CCCCO[C@@H](CN(C)C(=O)c2ccncc2)[C@@H](C)CN([C@H](C)CO)C(=O)c2cc(NS(=O)(=O)c3ccc(Cl)cc3)ccc2O1
0.72	0.7	6	-12	0	i	-3.2	6	-5%	Cc1cc(NC(=O)c2ccccc2F)cc(C)c1OCC(=O)N1CCOCC1
0.67	-1.7	12	-2.8	-2	i	-1.3	9	·	O=C(NNC(=O)C1CCN(S(=O)(=O)c2cccc(C(F)(F)F)c2)CC1)C1CC1
0.67	0.0	-21	2.4	2	i	6.3	-19	·	O=C(CSc1nc(C2CC2)nc2ccccc12)N1CCCCC1
0.79	3.5	·	·	-18	·	·	·	-4%	CCOc1ccc(NC(=O)CN2CCN(CC(=O)c3ccc(OC)c(OC)c3)CC2)cc1
0.73	2.6	·	·	2	·	·	·	?	Cc1ccc2c(c1)CCCN2C(=O)Nc1ccc2c(c1)OCO2
·	·	15	-2.0	·	i	-3.9	3	·	C[C@@H]1CN([C@@H](C)CO)C(=O)c2ccccc2-c2ccccc2CO[C@@H]1CN(C)C(=O)C1CC1
0.61	-1.4	2	-0.6	-3	i	0.1	3	?	Cc1cc(NC(=O)C2=C(O)c3ccccc3S(=O)(=O)N2C)no1
·	1.5	9	-0.5	-7	i	-1.6	4	-6%	Cc1ccc(C(=O)NCC(=O)N/N=C/c2cccs2)cc1[N+](=O)[O-]
0.68	2.2	2	0.1	-1	i	-2.8	6	·	CC(=O)c1ccc(N2CCN(CC(=O)Nc3ccccc3C(=O)NC3CC3)CC2)c(F)c1
0.67	-2.3	-20*	0.5	-6	i	0.1*	-35*	·	c1ccc2sc(NN=C3CCCC3)nc2c1
0.66	-0.9	-8	0.7	-4	i	2.2	-15	8%	ClCC1CSC(=NC23CC4CC(CC(C4)C2)C3)O1 (centres undefined)
·	·	5	-2.4	·	i	-1.2	0	·	C[C@H]1CN([C@@H](C)CO)C(=O)c2cc(C#CC3(O)CCCC3)cnc2O[C@@H]1CN(C)Cc1ccncc1
0.71	-1.1	·	·	35	·	·	·	12%	O=C(Nn1cnnc1)c1cc2c(s1)CCCCC2
0.69	1.3	-13*	10	-1	i	-2.4*	-22*	-3%	CCN(CC)CC(=O)Nc1sc2c(c1C(=O)c1ccccc1OC)CCC2
0.65	0.2	-20	-2.0	20	i	-1.3	-17	·	Cc1ccc(-c2c(C)sc3nc[nH]c(=O)c23)cc1C
·	·	2	-2.1	·	i	-0.9	-2	·	COc1ccc(C(=O)Nc2ccc3c(c2)OC[C@@H](C)N(C(C)=O)C[C@H](C)[C@H](OC)CN(C)C3=O)cc1
0.74	1.6	·	·	-12	·	·	·	3%	O=P(O)(c1ccccc1)c1ccccc1O
·	-1.1	·	·	-5	·	·	·	-6%	COc1c(Br)cc(Br)cc1/C=N/n1c(C)nnc1C
0.71	-1.6	-5	0.3	3	i	0.9	-2	-7%	CC1CCC(NC(=O)CN(C)CC(=O)Nc2ccc(F)cc2)CC1 (centres undefined)
·	0.8	-4	-4.0	·	i	-0.9	-1	0%	CC(=O)Nc1ccc(NCc2ccc(-c3ccccc3)cc2)cc1

Record cards, from the list above. Screens in order: Ecoli growth | HNF4A DNA FP | rRNA inh HTS OD600 | MLL AF4-AF9 inh | ALR inh | FGF22 binding | rRNA inh HTS RFP | rRNA inh HTS | Vif A3G
`COc1c(Br)cc(Br)cc1/C=N/n1c(C)nnc1C` in the list: · | -1.1 | · | · | -5 | · | · | · | -6%
`Cc1ccc(C(=O)NCC(=O)N/N=C/c2cccs2)cc1[N+](=O)[O-]` in the list: · | 1.5 | 9 | -0.5 | -7 | i | -1.6 | 4 | -6%
`CCN(CC)CC(=O)Nc1sc2c(c1C(=O)c1ccccc1OC)CCC2` in the list: 0.69 | 1.3 | -13* | 10 | -1 | i | -2.4* | -22* | -3%

Next part
Ecoli growth	HNF4A DNA FP	rRNA inh HTS OD600	MLL AF4-AF9 inh	ALR inh	FGF22 binding	rRNA inh HTS RFP	rRNA inh HTS	Vif A3G	Compound
0.68	-3.7	8	1.8	-11	i	0.0	12	-5%	Cc1cc(NC(=O)CSc2nc(N)c(NC(=O)c3ccccc3)c(=O)[nH]2)no1
·	·	5	-0.9	·	i	0.4	7	·	C[C@H]1CN([C@@H](C)CO)C(=O)c2cc(NC(=O)Nc3ccc(F)cc3)ccc2O[C@@H]1CN(C)C(=O)Nc1ccc2c(c1)OCO2
·	·	-27	3.3	·	i	0.7	-3	·	CCCC#Cc1ccc2c(c1)O[C@H](CN(C)C(=O)C1CCC1)[C@@H](C)CN([C@@H](C)CO)S2(=O)=O
0.71	-3.8	6	2.6	-2	i	-0.3	-3	9%	O=C(Nc1cccnc1)c1sc(Nc2ccccc2)nc1-c1ccccc1
·	-5.9	-31	1.2	·	i	8.4	-13	·	CC(=O)Nc1ccc(-c2ccnc3c2CC(C(=O)Nc2cccc(C(F)(F)F)c2)O3)cc1 (centres undefined)
0.65	1.2	·	·	99*	·	·	·	·	COc1cccc(NC(=O)CSCc2cc(=O)n3ccsc3n2)c1
0.71	0.3	6	6.6	-3	i	22	8	27%	CC1Cc2ccccc2N1CC(=O)NC(=O)NC(C)(C)C (centres undefined)
·	18	·	·	-6	·	·	·	7%	Cc1ccc2nc(N/N=C\c3ccc([N+](=O)[O-])o3)nc(-c3ccccc3)c2c1
0.67	-0.7	7	-2.7	-9	i	0.7	2	·	COc1ccc(C2/C(=C(/O)c3ccc(Br)cc3)C(=O)C(=O)N2C)cc1OC (centres undefined)

Compound activity from PubChem.
